KCNQ2 enhance: potentiators of rat KCNQ2 potassium channel; O88943; CHO-K1 KCNQ2, FluxOR thallium flux fluorescence; stronger effect = higher value; B-score at 10 µM; 310,000 compounds, 0.54% hits; AID 2239;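 active means fluorescence ratio B-score at least 3 SD of library B-scores, with initial fluorescence B-score within 3 SD, cut at about 5.3 in these data; same plate scores as AID 2156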;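 further: B-score of peak minus minimum over baseline fluorescence ratio after K+ and Tl+ stimulus; positive B-score means potentiation of KCNQ2 with more thallium influx and brighter signal; only the inactives scoring about 0 or higher are listed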
Target sequence (O88943 whole entry, looked up): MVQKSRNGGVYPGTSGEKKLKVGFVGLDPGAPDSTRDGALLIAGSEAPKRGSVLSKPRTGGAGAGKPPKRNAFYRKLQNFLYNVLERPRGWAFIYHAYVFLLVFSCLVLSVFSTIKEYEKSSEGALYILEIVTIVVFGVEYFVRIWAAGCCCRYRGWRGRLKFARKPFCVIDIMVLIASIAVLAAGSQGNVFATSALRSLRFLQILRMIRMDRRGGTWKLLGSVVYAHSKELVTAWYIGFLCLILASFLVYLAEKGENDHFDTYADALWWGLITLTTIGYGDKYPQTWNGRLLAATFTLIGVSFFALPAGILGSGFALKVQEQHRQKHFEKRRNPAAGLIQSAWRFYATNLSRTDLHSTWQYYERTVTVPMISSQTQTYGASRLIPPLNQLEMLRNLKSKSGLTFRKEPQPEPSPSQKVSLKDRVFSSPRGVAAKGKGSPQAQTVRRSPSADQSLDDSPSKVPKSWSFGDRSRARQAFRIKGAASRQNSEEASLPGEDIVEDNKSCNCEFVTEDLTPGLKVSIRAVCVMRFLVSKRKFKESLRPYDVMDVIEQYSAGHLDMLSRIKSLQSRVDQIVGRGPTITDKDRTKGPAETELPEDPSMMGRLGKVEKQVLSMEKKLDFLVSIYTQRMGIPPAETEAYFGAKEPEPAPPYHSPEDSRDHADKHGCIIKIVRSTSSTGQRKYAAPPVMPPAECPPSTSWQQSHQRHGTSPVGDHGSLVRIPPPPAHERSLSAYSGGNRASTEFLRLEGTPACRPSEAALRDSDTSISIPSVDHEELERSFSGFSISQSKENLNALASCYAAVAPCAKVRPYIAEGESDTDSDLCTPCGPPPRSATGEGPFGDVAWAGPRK
KCNQ2 enhance baseline: further read-out of KCNQ2 enhance, marked with its call; B-score; compound at 10 µM; measured here: initial fluorescence intensity artifact check;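 brightness before thallium and not channel activity; 0 = typical well and far values either way flag optical interference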
The depositor's hits bear a star. Not all compounds are listed (hit frequency here may not be typical).

canonical_smiles | KCNQ2 enhance baseline | KCNQ2 enhance
CCCN1c2cccc3cccc(c23)S1(=O)=O | 0.75 | 2
Cc1cc(C)cc(OCCCCn2cncn2)c1 | -0.01 | 0.69
Cc1ccc2sc(NNC(=O)c3cc(-c4cccs4)nc4ccccc34)nc2c1C | 1.1 | 0.85
C=C(C)Cn1c(C)cc(C)c(S(=O)(=O)c2cccc(C)c2)c1=O | -0.96 | 0.18
CCOc1ccc(Cc2nnc(SCC(=O)Nc3ccc(C(C)=O)cc3)[nH]c2=O)cc1 | 0.35 | 1.2
Cc1cccc(NC(=O)c2ccc(N3C(=O)C4CCCCC4C3=O)cc2)c1C (centres undefined) | 0.47 | 0.25
COCC(=O)NC1CCN(S(=O)(=O)c2cccc(C(C)=O)c2)CC1 | 1.2 | 1
Cc1ccc(-c2nc3cc(NS(=O)(=O)c4ccc(C)cc4)ccc3o2)cc1 | -0.03 | 0.03
CCOc1ccc2nc(SCc3ccc(OC)cc3)sc2c1 | -0.39 | 0.12
CN(C)S(=O)(=O)c1cc(NC(=O)COC(=O)CCc2ccccc2)ccc1Cl | -0.12 | 0.08
CC(C)CO/C(=N/S(=O)(=O)c1ccccc1)c1ccccc1 | 0.65 | 0.96
COc1ccc(Cl)cc1NC(=O)c1nnn(CC(=O)Nc2cc(C)cc(C)c2)c1N | -0.26 | 1.5
Cc1cc(-c2nnc(SCCC(=O)Nc3ccccc3)o2)no1 | 0.28 | 1.1
Cc1ccc(NC(=O)c2ccc(Cl)nc2)cc1 | 0.13 | 2.5
O=C(O)c1ccccc1NC(c1ccccc1)c1ccc(Cl)cc1 (centres undefined) | 0.01* | 5.9*
COc1ccc(OC)c(/C=N/NC(=O)C(=O)N2CCCCCC2)c1 | 0.58 | 1.1
CCn1c(C)c(C(C)=O)c(N2CCC(C(N)=O)CC2)nc1=S | 0.96 | 0.01
CCOc1cccc(CN2CCCC(C(=O)c3cccc(C(F)(F)F)c3)C2)c1O (centres undefined) | 2 | 0.33
Cc1cc(C(=O)Nc2ccccc2C(=O)O)ccc1NC(=O)COc1cccc(C)c1C | 1.5 | 0.88
O=C(O)C1CCN(c2ccc(Cl)nn2)CC1 | -0.89 | 0.07
CC(=O)Oc1cccc(N2C(=O)C3CC=CCC3C2=O)c1 (centres undefined) | 0.75 | 1.9
CCN(CC)CCN1c2ccccc2Sc2ccccc21 | -2.1 | 0.03
COc1cc(C2C(C(=O)/C=C/c3ccccc3)=C(O)C(=O)N2c2ccccn2)ccc1O (centres undefined) | 0.32 | 0.33
Cc1cccc(CCNC(=O)C2CCN(S(=O)(=O)N3CCOCC3)CC2)c1 | 2.2 | 0.26
CC(=O)c1c(C)[nH]c(C(=O)Nc2nc(-c3ccccc3)c(C)s2)c1C | 0.23 | 0.54
CCOC(=O)c1c(N)sc(C(=O)N2CCOCC2)c1C | -2 | 1.1
CC(Sc1nnc(NC2CCCCC2)s1)C(=O)Nc1ccc2c(c1)C(=O)c1ccccc1C2=O (centres undefined) | -3.1 | 0.66
O=C(Cn1cnc2c(cnn2-c2ccccc2)c1=O)Nc1ccc(S(=O)(=O)N2CCOCC2)cc1 | 0.78 | 1.8
COc1ccc(C(=O)NC2CC3CCCC(C2)N3CC(C)C)cc1OC (centres undefined) | 0.47 | 1.9
Cc1nc2c(Cl)cccc2[nH]1 | 0.99 | 1.5

By substructure: those above with an aryl methoxy group.
canonical_smiles | KCNQ2 enhance baseline | KCNQ2 enhance
CCOc1ccc2nc(SCc3ccc(OC)cc3)sc2c1 | -0.39 | 0.12
COc1ccc(Cl)cc1NC(=O)c1nnn(CC(=O)Nc2cc(C)cc(C)c2)c1N | -0.26 | 1.5
COc1ccc(OC)c(/C=N/NC(=O)C(=O)N2CCCCCC2)c1 | 0.58 | 1.1
COc1cc(C2C(C(=O)/C=C/c3ccccc3)=C(O)C(=O)N2c2ccccn2)ccc1O (centres undefined) | 0.32 | 0.33
COc1ccc(C(=O)NC2CC3CCCC(C2)N3CC(C)C)cc1OC (centres undefined) | 0.47 | 1.9

The main list resumes with the 2 entries that preceded the break.
canonical_smiles | KCNQ2 enhance baseline | KCNQ2 enhance
COc1ccc(C(=O)NC2CC3CCCC(C2)N3CC(C)C)cc1OC (centres undefined) | 0.47 | 1.9
Cc1nc2c(Cl)cccc2[nH]1 | 0.99 | 1.5
CC(=O)c1ccc(NC(=O)c2noc3c2CCCCC3)cc1 | 0.62 | 1.5
COc1ccc(C(=O)N(C)C2CCCCC2)cc1OC1CCN(C(C)C)CC1 | -0.03 | 2.2
C=CCn1c2ccccc2c2nnc(SCCN3CCOCC3)nc21 | -2 | 1.2
Cn1nnnc1SCc1ccc(C(=O)Nc2ccc(Br)cc2)cc1 | 0.07 | 1.6
CCOC(=O)C(NC(=O)CC)(Nc1ccc(S(=O)(=O)Nc2ncccn2)cc1)C(F)(F)F (centres undefined) | -0.2 | 0.38
O=C(CSCc1ccccc1)N=Nc1c(O)[nH]c2ccccc12 | -0.21 | 1.3
Cc1ccc(S(=O)(=O)NN)c(C)c1N1CCCC1=O | 1.4 | 0.07
CC(C)(C)C(=O)Nc1ccccc1C(=O)N1CCCC1 | 0.02 | 0.57
COc1ccc(CCNC(=O)C(=O)NCCCN2CCOCC2)cc1 | 0.39 | 0.99
Cn1cc(CN(Cc2ccccn2)C[C@@H]2CCC(=O)N2)c(-c2ccccc2F)n1 | 1 | 0.89
Cc1cccc(C)c1NC(=O)/C(C#N)=C/c1cccs1 | -1.2 | 0.53
CCOC(=O)C1CN(C(C)(C)C)C(=O)C1=O (centres undefined) | -0.22 | 0.1
CCCn1c(SCC(=O)NC2CCCCC2)nnc1-c1ccco1 | -0.45 | 1
C=CCc1c(C)c(C#N)c2nc3ccccc3n2c1NCCN(C)C | 0.21 | 0.21
CNS(=O)(=O)c1ccc(NC(=O)c2ccccn2)cc1 | -0.74 | 1.9
COc1ccc(N(C(C)C(=O)N/N=C/c2ccc(OC)c(OC)c2)S(C)(=O)=O)cc1 (centres undefined) | 0.18 | 0.65
Cc1cc(Cl)c(S(=O)(=O)N2CCN(c3ccccn3)CC2)cc1OCC(N)=O | 0.3 | 1.6
FC(F)(F)Oc1ccc(NC(=S)Nc2ccc(OC(F)(F)F)cc2)cc1 | -0.12 | 3.5
COc1ccc(-n2cc3ccc([N+](=O)[O-])cc3n2)cc1 | -0.41 | 4.2
COc1ccc(C(=O)Nn2c(C)nc3ccccc3c2=O)cc1 | 0.08 | 1.9
CC(C)CC(=O)NC(=S)Nc1ccccn1 | -0.48 | 0.79
Cc1ccc(C(=O)C(=S)N2CCOCC2)cc1 | -0.76 | 0.37
COc1ccc(NC(=O)/C=C/c2ccc(Br)o2)cn1 | -0.21 | 1.4
CCN(CC)c1ccc(NC(=O)CSc2nc3ccccc3c(=O)n2-c2cc(S(=O)(=O)N(C)C)ccc2C)cc1 | 0 | 0.8
CC(C)n1c(N2CCN(CC(=O)NCc3cccs3)CC2)nc2ccccc21 | 2.1 | 1.1
CCOC(=O)c1oc2ccccc2c1COC(=O)CNC(=O)c1ccc(C)cc1 | -0.96 | 0.07
Cc1cc(F)ccc1NC(=O)CCc1c(C)nn(-c2ccc(N3CCCCC3)nn2)c1C | -0.11 | 0.35
CN(C(=O)CSc1nncn1-c1ccccc1)C1CCS(=O)(=O)C1 (centres undefined) | -0.02 | 0.3
O=C(NCc1ccccc1)Nc1cccn(Cc2cccc(F)c2)c1=O | 0.04 | 0.03
O=C(CCCCCCCC(=O)NNC(=O)Nc1ccccc1)NNC(=O)Nc1ccccc1 | 0.05 | 0.12
O=C(Nc1ccccn1)C(=O)Nc1ccccn1 | -0.08 | 1.1
O=c1[nH]cc(-c2ccc(Br)cc2)n1Cc1ccccc1 | -0.88 | 0.07
Nc1ccn(Cc2ccccc2F)n1 | 0.64 | 0.63
COc1ccc(C(=O)NC2CCN(CC(=O)NCc3ccccc3)CC2)cc1 | -0.12 | 1.4
S=C(NCc1ccco1)Nc1ccc(Cl)cc1Cl | 0.58 | 4.7
COc1cc(/C=N/n2cnnc2)ccc1OCc1ccc(C)cc1 | 0.55 | 1.6
CC(C)NC(=O)c1ccc2c(c1)N(CC(=O)Nc1ccccc1F)C(=O)C(C)(C)O2 | -0.22 | 0.91
O=C(COC(=O)c1ccccc1[N+](=O)[O-])Nc1nnc(-c2ccccc2)o1 | -0.49 | 0.72
CCc1ccc(CN(C)C(=O)C2CCC(=O)N(CCCN3CCCC3=O)C2)cc1 (centres undefined) | 0.18 | 0.37
Cc1cc(C(=O)N2CCOCC2)n(-c2ccccc2)n1 | 0.37 | 0.28
CCS(=O)(=O)NCC(c1cccnc1)N1CCN(c2ccc(F)cc2)CC1 (centres undefined) | 0.08 | 1.2
CCC1(CC)Nc2ccccc2C(=O)N1c1ccc(NC(C)=O)cc1 | -2.7 | 1.1
CCSc1nnc(NC(=O)CSc2sc3c(O)cc(=O)[nH]c3c2C#N)s1 | 0.4 | 2.1
CC(C)Nc1nc(Cl)nc(NNC(=O)C(C)Oc2ccccc2)n1 (centres undefined) | 1.2 | 0.08
COc1ccc(CNc2ccc3c(c2)CCC3)cc1Br | 0.56 | 0.34
CCOc1ccc(Nc2ncnc3c2cnn3-c2ccccc2)cc1 | 1.9 | 1.4
CCC(C)c1ccc(NC(=S)N2CCN(S(C)(=O)=O)CC2)cc1 (centres undefined) | 0.32 | 0.69
CCc1ccc(OCC2Cn3c(nc4c3c(=O)[nH]c(=O)n4C)O2)cc1 (centres undefined) | 1.6 | 1.4
O=C(/C=C/c1cccs1)NCc1ccc2c(c1)OCO2 | 0.66* | 8.6*
COc1ccc(CNC(=O)C[C@H]2C(=O)N(C3CCCCC3)C[C@@H]2Cc2ccccc2)cc1 | -0.87 | 0.04
COc1ccc(NC(=O)COc2cccc(-n3cnnn3)c2)cc1Cl | -0.16 | 1.4
Cc1nc2sccn2c(=O)c1Cl | -0.74 | 2
COc1ccc(N(CC(=O)NC(C)C)S(=O)(=O)c2ccc(NC(C)=O)cc2)cc1 | 0.26 | 0.84
CCOC(=O)C1=C(C)NC2=C(C(=O)CCC2)C1c1cccs1 (centres undefined) | 2.4 | 0.57
CCC(C)SCC(=O)Nc1ccc(S(=O)(=O)N2CCOCC2)cc1OC (centres undefined) | 0.03 | 1
Cc1ccc(NC(=O)c2cc(S(=O)(=O)NCCc3ccccc3)ccc2F)cc1Cl | -1.5 | 0.24
COc1ccc(C)cc1S(=O)(=O)Nc1cccc(SC)c1 | -1.7 | 1.3
C/C(=N\NC(=O)C(=O)Nc1cccc(Cl)c1)c1ccncc1 | -0.01 | 0.77
CC(C)CCNC(=O)CCNS(=O)(=O)c1ccc(Cl)cc1 | 0.67 | 0.29
O=C(Nc1nnc(S(=O)(=O)N2CCCCCC2)s1)c1ccccc1F | -1.1 | 1.6

(listing goes on)
canonical_smiles | KCNQ2 enhance baseline | KCNQ2 enhance
Cc1cc(C)n(C(=O)CNC(=O)c2cccs2)n1 | -1.4 | 1.4
O=C(Nc1ccc(NC(=O)C2CC2)nc1)c1ccco1 | 1.2 | 0.91
O=C(COc1cc(Cl)c(Cl)cc1Cl)NC(=O)NC1CCCC1 | 1.2 | 0.73
COc1ccc(/C=N/N(C)c2cc(=O)n(C)c(=O)[nH]2)cc1OC | -0.21 | 0.02
Cc1ccc(SCC(=O)OCC(=O)NCCC2=CCCCC2)cc1 | -0.8 | 0.99
Cc1sc2nc(COC(=O)c3ccc(N4CCCC4)c([N+](=O)[O-])c3)[nH]c(=O)c2c1C | -1.9 | 0.25
O=C(O)CSC(=S)N1CCCC1 | -0.18 | 2.3
O=C(COC(=O)Cc1cccs1)Nc1cccc(S(=O)(=O)N2CCOCC2)c1 | 0.02 | 0.52
N#CC1=C(N)OC2=C(C(=O)CCC2)C12CCN(C(=O)OCc1ccccc1)CC2 | -0.76 | 0.76
Cc1cc(C)c(C)c(S(=O)(=O)Nc2cccnc2)c1C | 0.44 | 0.34
O=C(O)CCCCCN1C(=O)C(O)=C(C(=O)/C=C/c2ccccc2)C1c1cccc([N+](=O)[O-])c1 (centres undefined) | -1.1 | 1
CCCc1cc(C(N)=O)c(NC(=O)C2CCCO2)s1 (centres undefined) | -0.19 | 0.63
CC(C)Cn1c(=O)[nH]c2ccccc21 | -0.53 | 0.18
CC1(C(=O)NC2CCCC2)CCC(=O)N1Cc1ccccc1Cl (centres undefined) | -0.49 | 0.55
CCOCCCN(C(=O)CCC(=O)Nc1cc(C)on1)C(C(=O)NC(C)(C)C)c1ccccc1Cl (centres undefined) | -0.65 | 0.35
NS(=O)(=O)c1cnccc1Nc1cccc(F)c1 | 0.51 | 1.2
CS(=O)(=O)N(CC(=O)N1CCOCC1)c1cccc([N+](=O)[O-])c1 | 0.18 | 0.48
COc1ccc(N2CCN(S(=O)(=O)CCNC(=O)COc3cccc(OC)c3)CC2)cc1 | -0.03 | 0.78
COc1cc(/C=C/C(=O)N2CCOCC2)ccc1OCc1ccccc1 | -0.9 | 0.51
COC(=O)CCCC1=CC2=C(c3ccccc3)C(=O)C(C)(OC(=O)C3CCCC3)C(=O)C2=CN1Cc1ccc2c(c1)OCO2 (centres undefined) | 0.32 | 0.45
O=C(Nc1ccccc1)c1ccccc1OCc1cccc([N+](=O)[O-])c1 | -0.04 | 0.06
COCCn1c(CN2CCN(c3ccc(OC)cc3)CC2)nc2c1c(=O)n(C)c(=O)n2C | -1.5 | 1.2
CC1CN(C(=O)Cn2cnc3c2c(=O)n(C)c(=O)n3C)CC(C)O1 (centres undefined) | -1.3 | 1.1
N#Cc1c(/N=C/c2cc(Br)cs2)sc2c1CCC2 | 1.6 | 0.78
Cc1ccc(S(=O)(=O)N2CCOCC2)cc1C(=O)Nc1c(C)n(C)n(-c2ccccc2)c1=O | 0.36 | 1.9
COc1ccc(CSc2nnnn2-c2ccc(O)cc2)cc1F | 1.2 | 3.5
COc1ccccc1N1CCN(C(=O)c2sc3ncnc(N4CCN(c5ccccn5)CC4)c3c2C)CC1 | -1.4 | 0.89
COc1ccc(-c2cc(C(F)(F)F)nc(SCC(=O)N(C)Cc3cn(C)nc3C)n2)cc1OC | -0.52 | 0.05
COc1ccc(C(=O)O/N=C(\N)c2ccccn2)c(OC)c1 | -0.6 | 1.3

Screening results: PubChem, Johns Hopkins Ion Channel Center
